SARS PLP yeast: inhibitors of SARS-CoV papain-like protease in yeast. S. cerevisiae expressing SARS-CoV PLpro, growth rescue; control for the full effect not named in the record. Potency, µM (doses to about 32.9 µM), for inactives: at the top dose activity, positive = growth rescue. 0.19% of 330,000 active. AID 485353; active means well fitted rising curve with a large enough effect; inconclusive means small, poorly fitted or top-dose-only effect; inactive means no such curve, though single readings can be large or run the other way; note: 0% is about no effect; nearly all actives have a fitted effect of over 55% in size; growth read by luminescence after 48 h
NS1 inh: influenza NS1 inhibition. 0.4% of 270,000 active. AID 2326. Potency, µM (highest dose often 46.1 µM), without a hit: top-dose activity, positive = more growth. S. cerevisiae slowed by influenza A NS1, growth recovery by OD600; active means well fitted rising curve with a large enough effect; inconclusive means small, poorly fitted or top-dose-only effect; inactive means no such curve, though single readings can be large or run the other way; note: nearly all actives have a fitted effect of over 50% in size
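S. cerevisiae expressing influenza A NS1, grown in glucose, washed, then diluted 1:100 into pH 6.0 -URA galactose medium with 23 nl compound. Growth recovery read as OD600; NS1-free strain serves as control.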
Marburg entry inh: inhibitors of Marburg virus binding or cell entry. Marburg virus pseudotyped entry inhibition, cell reporter; control for the full effect not named in the record; about a third of the inactives were read at about 46 µM. Potency, µM (top dose mostly 37.8 µM), for the others: at the top dose activity change, negative = inhibition, hits mostly inhibitors. 1.8% of 300,000 active. AID 540276; active = well fitted inhibition curve with a large enough effect; inconclusive = small, poorly fitted or top-dose-only effect, or effect the other way; inactive = flat fitted curve, though single readings scatter; tested in HEK293 cells; about a fifth of its hits are not listed in these tables; note: % is set by controls: 0 for no effect and ±100 for the full control effect; luciferase read-out
LASV entry inh: blocks Lassa virus binding to or entry into cells; Lassa virus pseudotype entry inhibition, cell reporter; control for the full effect not named in the record; Potency, µM (series often up to 37.9 µM), for the others: top-dose activity change, negative = inhibition, hits mostly inhibitors; 1.2% of 300,000 active; active means well fitted inhibition curve with a large enough effect; inconclusive means small, poorly fitted or top-dose-only effect, or effect the other way; inactive means flat fitted curve, though single readings scatter; tested in HEK293 cells; note: % is set by controls: 0 for no effect and ±100 for the full control effect; nearly all actives have a fitted effect of over 50% in size; luciferase read-out
RE007 growth inh: less growth of the S. pombe RE007 Vpr strain | S. pombe RE007 Vpr strain, BacTiter-Glo ATP luminescence, 24 h; control for the full effect not named in the record | Potency, µM (top dose mostly 92.2 µM), for the others: top-dose activity change, negative = less growth | 0.21% of 360,000 active; active = well fitted falling curve with a large enough effect; inconclusive = small, poorly fitted or top-dose-only effect; inactive = no such curve, though single readings can be large or run the other way;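 note: % is set by controls: 0 for no effect and ±100 for the full control effect; nearly all actives have a fitted effect of over 50% in size; the assay follows cell death caused by Vpr and the record does not say whether a fall means rescue or toxicity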
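Fission yeast strain RE007, carrying one chromosomally integrated HIV-1 vpr copy, was seeded at OD 0.01 in PMG+AL medium with 23 nL pinned compound. After 24 h at 30 °C and 99% humidity, viability was read by BacTiter-Glo luminescence.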
Cruzain inh Det: cruzain (T. cruzi) inhibition with detergent. purified cruzain, Z-FR-AMC fluorescence, 0.01% Triton. Potency, µM, for the others: max response, negative = inhibition, usual class: inhibitors. 0.43% of 200,000 active;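 note: plate controls were neutral wells for no effect and buffer without enzyme for full effect; nearly all actives have a fitted effect of over 40% in size; top concentration of the series not given in the record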
Target sequence (P25779 123-467 limits assumed): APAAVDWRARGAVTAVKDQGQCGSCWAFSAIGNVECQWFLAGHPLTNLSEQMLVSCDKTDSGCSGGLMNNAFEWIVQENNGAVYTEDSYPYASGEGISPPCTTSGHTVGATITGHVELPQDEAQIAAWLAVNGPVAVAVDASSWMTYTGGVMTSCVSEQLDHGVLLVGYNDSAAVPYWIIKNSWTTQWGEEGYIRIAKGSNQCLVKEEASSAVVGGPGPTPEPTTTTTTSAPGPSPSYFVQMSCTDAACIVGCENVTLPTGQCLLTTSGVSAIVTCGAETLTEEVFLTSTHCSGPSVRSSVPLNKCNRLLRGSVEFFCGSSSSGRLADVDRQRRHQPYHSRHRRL
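Z-FR-AMC hydrolysis (2 uM substrate) by cruzain (1.5 nM) monitored kinetically at ex 360/em 450 nm after 15 min room-temperature compound exposure; 0.01% Triton X-100, pH 5.5, 5 mM DTT.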
Cruzain inh noDet: inhibitors of Trypanosoma cruzi cruzain without detergent; purified cruzain, Z-FR-AMC fluorescence, no detergent; P25779; Potency, µM, for inactives: max response, negative = inhibition, hits mostly inhibitors; 2.3% of 200,000 active;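 note: plate controls were enzyme without inhibitor for no effect and buffer without enzyme for full effect; nearly all actives have a fitted effect of over 40% in size; top concentration of the series not given in the record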
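Detergent-free condition (0.00005% Triton X-100) in acetate buffer pH 5.5 with DTT. 1.5 nM enzyme and compound were pre-mixed 15 min, then 2 uM Z-FR-AMC substrate added; reaction progress from fluorescence change between first and third reads (60 s).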
2A StopGo: lowers the luciferase signal of an FMDV 2A StopGo reporter. human cells with a luciferase reporter of 2A StopGo recoding; control for the full effect not named in the record. Potency, µM (titrated, usually from 57.9 µM), for inactives: at the top dose signal change, negative = less light. 1.2% of 410,000 active; active = well fitted falling curve with a large enough effect; inconclusive = small, poorly fitted or top-dose-only effect; inactive = no such curve, though single readings can be large or run the other way; tested in HEK293T cells; note: % is set by controls: 0 for no effect and ±100 for the full control effect; nearly all actives have a fitted effect of over 45% in size; luciferase light after 4 h
Numbers without * were called inactive; ? = inconclusive; nt = not tested or not shown; [ ] = dose if it differs, or a comment. Unless noted, calls come from the whole dose curve; as a rule, active = well fitted curve in the direction sought with a large enough effect; inconclusive = small, poorly fitted or top-dose-only effect, or another doubt; inactive = no such curve, though single readings can be large; an effect the other way counts as inactive or inconclusive. Potency is the fitted concentration of half-maximal effect. The order is random; any-hit rate near 4.7%.

no.	SMILES	Cruzain inh Det	RE007 growth inh	2A StopGo	NS1 inh	SARS PLP yeast	Marburg entry inh	Cruzain inh noDet	LASV entry inh
1	CN(C)S(=O)(=O)c1ccc(NC(=O)COC(=O)c2ccccn2)cc1	7.5%	1.5%	5.8%	6.2%	-1.4%	27.5%	-1.2%	17.3%
2	C[C@@H](C(=O)Nc1nc2ccc(F)cc2s1)N1C(=O)C2CC=CCC2C1=O (stereo partly specified)	nt	-0.6%	-1.3%	6.0%	-1.8%	6.2%[46.1 µM]	nt	?
3	COc1ccccc1-n1ccnc1SCC(=O)NC1CCCC1	nt	5.9%	-6.7%	nt	-0.1%	4.7%[46.1 µM]	nt	nt
4	CSCCC(NC(=O)c1ccccc1)C(=O)OCC(=O)Nc1ccc(C)c(Cl)c1 (stereo unspecified)	14.1µM*	-9.4%	-13.2%	-22.3%	-36.4%	1.1%	-14.3%	-2.8%
5	CC(=O)Nc1sc(C)c(C)c1C(=O)OCCOc1ccccc1	nt	1.8%	0.0%	-10.3%	-3.6%	?	nt	?
6	NC(=O)[C@H]1CC2(CC(c3cccc(NC(=O)COc4ccc(Cl)cc4)c3)=NO2)CN1C(=O)[C@H]1CCC(=O)N1 (stereo partly specified)	nt	12.4%	7.2%	-3.1%	0.4%	nt	nt	nt
7	Cc1nn(-c2ccccc2)c(C)c1NC(=O)COc1ccc(Cl)cc1Cl	-12.3%	nt	?	-24.8%	-47.7%	11.6µM*	86.7%	-17.6%
8	CC[N+](CC)(CC#CCO)CC#Cc1ccccc1	nt	-8.6%	-3.8%	nt	-1.0%	-12.5%[46.1 µM]	nt	1.8%[46.1 µM]
9	O=C(Nc1cccc(C(=O)O)c1)/C(=C\c1ccco1)NC(=O)c1ccc(Br)o1	nt	2.3%	?	1.2%	0.5%	-0.1%[46.1 µM]	nt	-7.0%[46.1 µM]
10	CC1CCCC(C)N1C(=O)COC(=O)CNC(=O)C12CC3CC(CC(C3)C1)C2 (stereo unspecified)	nt	5.1%	-2.7%	nt	1.0%	-41.8%	nt	-2.1%
11	O=C(Nc1ccc2c(c1)oc1ccc(S(=O)(=O)N3CCCC3)cc12)C1CC1	-9.4%	14.6%	nt	-1.0%	1.1%	-25.0%	?	11.6µM*
12	CC(=O)Nc1ccc(C(=O)COC(=O)C2CCCCC2)c(F)c1	nt	10.6%	30.2%[activator]	nt	-2.6%	4.7%	nt	3.0%
13	COC(=O)CSc1nc2ccccc2c(=O)n1C	-0.2%	5.9%	1.6%	-49.1%	-0.1%	1.4%	-11.6%	7.8%
14	O=C(N/N=C/c1ccco1)c1ccc(NC(=O)c2ccccc2Cl)cc1	nt	6.4%	-8.9%	3.4%	-1.4%	1.0%[46.1 µM]	nt	-3.9%
15	CCN1CCN(CCCNC(=O)C2c3ccccc3C(=O)N(C)C2c2ccc(OC)cc2)CC1 (stereo unspecified)	1.5%	21.7%	-7.4%	-8.0%	7.5%	?	-8.8%	4.2%
16	CSc1ccccc1NC(=O)CN(C)CC(=O)Nc1ccc(S(=O)(=O)N2CCCC2)cc1	nt	10.1%	8.1%	nt	-2.5%	1.3%[46.1 µM]	nt	0.0%[46.1 µM]
17	Cc1ccc(CNC(=O)c2cc(=O)c3ccc(C)cc3o2)cc1	nt	9.7%	-25.4%	-4.2%	-3.1%	nt	nt	nt
18	Cc1ccc(C2=Nc3ccccc3N(CC(=O)Nc3cccc(F)c3)C(=O)C2)cc1C	4.4%	nt	29.3%	nt	nt	nt	?	nt
19	COCCCNC(=O)c1c(NC(=O)c2nc(S(C)(=O)=O)ncc2Cl)sc2c1CCCC2	0.1%	nt	-18.0%	nt	nt	13.7%[46.1 µM]	-4.0%	20.2%[46.1 µM]
20	CC(C)Cn1c(N2CCN(C(=O)/C=C/c3ccccc3)CC2)nc2ccccc21	nt	13.8%	-13.8%	-11.7%	-1.7%	nt	nt	nt
21	CC(C)(C)n1ncc2c(=O)n(Cc3ccc(Cl)cc3Cl)cnc21	-6.3%	22.7%	?	-7.5%	-2.8%	?	-7.9%	?
22	Cn1c(N)c(C(=O)COC(=O)C2CCC(C(C)(C)C)CC2)c(=O)n(C)c1=O (stereo unspecified)	-9.5%	17.0%	?	9.8%	-12.7%	-7.5%	?	?
23	CC(C)C(NS(=O)(=O)c1cccs1)C(=O)N1CCc2ccccc2C1 (stereo unspecified)	-1.0%	-13.8%	-23.0%	3.3%	2.8%	-22.6%	-9.2%	-18.4%
24	COc1ccc2oc(C(=O)N3CCN(S(=O)(=O)c4cccc([N+](=O)[O-])c4)CC3)c(C)c2c1	nt	-2.1%	-29.3%	-2.7%	-0.7%	?	nt	-1.1%[46.1 µM]
25	CC(=O)CCc1ccc2oc(C(=O)O)c(C)c2c1	4.1%	8.3%	-1.0%	0.0%	-3.6%	10.3%	3.7%	22.9%

Whole records, quoted from the list.
COc1ccccc1-n1ccnc1SCC(=O)NC1CCCC1 in the list: Cruzain inh Det: nt; RE007 growth inh: 5.9%; 2A StopGo: -6.7%; NS1 inh: nt; SARS PLP yeast: -0.1%; Marburg entry inh: 4.7%[46.1 µM]; Cruzain inh noDet: nt; LASV entry inh: nt
COc1ccc2oc(C(=O)N3CCN(S(=O)(=O)c4cccc([N+](=O)[O-])c4)CC3)c(C)c2c1 in the list: Cruzain inh Det: nt; RE007 growth inh: -2.1%; 2A StopGo: -29.3%; NS1 inh: -2.7%; SARS PLP yeast: -0.7%; Marburg entry inh: ?; Cruzain inh noDet: nt; LASV entry inh: -1.1%[46.1 µM]

The main list resumes; the two compounds before the break are reprinted first.
no.	SMILES	Cruzain inh Det	RE007 growth inh	2A StopGo	NS1 inh	SARS PLP yeast	Marburg entry inh	Cruzain inh noDet	LASV entry inh
24	COc1ccc2oc(C(=O)N3CCN(S(=O)(=O)c4cccc([N+](=O)[O-])c4)CC3)c(C)c2c1	nt	-2.1%	-29.3%	-2.7%	-0.7%	?	nt	-1.1%[46.1 µM]
25	CC(=O)CCc1ccc2oc(C(=O)O)c(C)c2c1	4.1%	8.3%	-1.0%	0.0%	-3.6%	10.3%	3.7%	22.9%
26	O=C(NC1CCCCCC1)c1cccs1	2.1%	?	37.0%[activator]	-43.9%	-17.3%	26.5%	-20.0%	17.6%
27	Cc1[nH]n(-c2ccccc2)c(=O)c1C=NCCc1ccccc1	nt	7.3%	53.5%	-7.5%	-1.7%	nt	nt	nt
28	O=C(NCCC1=CCCCC1)C1CCN(S(=O)(=O)c2ccccc2)CC1	nt	-2.6%	-6.5%	-9.4%	-0.3%	?	nt	-0.5%[46.1 µM]
29	COc1ccccc1CNc1nc(-c2ccco2)nn1S(=O)(=O)c1ccc(C)cc1	-5.6%	nt	-8.7%	nt	nt	-9.9%[46.1 µM]	3.7%	-19.7%[46.1 µM]
30	COc1ccc(-c2nn(CCC#N)cc2/C=N/O)cc1	nt	-8.4%	1.1%	nt	2.0%	21.2%[46.1 µM]	nt	0.2%
31	CC(NC(=O)CCNC(=O)N1CCn2c1nc1ccccc12)c1ccccc1 (stereo unspecified)	nt	6.6%	-19.6%	-3.5%	2.7%	nt	nt	nt
32	Cc1cc(NC(=O)C2CC(c3cccc(Br)c3)=NO2)no1 (stereo unspecified)	-3.3%	5.1%	nt	-3.7%	-3.5%	-14.7%	-12.9%	3.1%
33	CCOC(=O)C1=NN(c2ccccc2)C(c2ccccc2)CC1=O (stereo unspecified)	-8.5%	20.0%	4.4%	-1.9%	-4.6%	0.0%	-5.8%	3.0%
34	COc1ccc(-c2nnc(SCC3CCCO3)n2C)cc1 (stereo unspecified)	nt	-2.5%	39.4%[activator]	nt	2.0%	?	nt	-4.1%
35	CCCc1nc2oc3c(NCCOCCO)ncnc3c2c2c1COC(C)(C)C2	-6.5%	6.9%	?	2.1%	6.0%	-19.9%	?	-2.8%
36	CN1C(=O)C(C)(C)N(C(=O)c2cccc([N+](=O)[O-])c2)c2ccccc21	nt	-5.0%	-21.4%	-3.1%	3.9%	-11.4%[46.1 µM]	nt	3.4%[46.1 µM]
37	CCc1ccc(C(=O)Nc2nc(C)cs2)s1	nt	-25.7%	?	-1.1%	1.3%	?	nt	1.26µM*
38	C=CCn1c(-c2cccc(OC)c2)n[nH]c1=S	-0.5%	23.1%	-13.6%	-2.8%	13.3%	6.7%	2.5%	13.6%
39	O=C(COC(=O)CNS(=O)(=O)c1cccc(F)c1)NCCc1ccccc1	nt	9.8%	-3.2%	nt	-2.3%	-5.2%[46.1 µM]	nt	10.6%
40	NC(=O)C1(NC(=O)[C@@H]2CC3(CC(c4cccc(NC(=O)c5cc([N+](=O)[O-])cc([N+](=O)[O-])c5)c4)=NO3)CN2C(=O)c2ccccc2)CC1 (stereo partly specified)	-7.9%	1.6%	-16.8%	-0.9%	-0.2%	nt	?	nt
41	COc1ccc(NC2CCCN(C(=O)C3(C)CCCCC3)C2)cc1 (stereo unspecified)	nt	-1.4%	-20.0%	-20.1%	17.0%	nt	nt	nt
42	Cc1nn(C)cc1CN1CCC(CO)(CCOc2ccccc2)CC1	nt	0.7%	-6.6%	2.9%	-1.5%	nt	nt	nt
43	COc1ccc(Cc2nn3c(-c4ccccc4Br)nnc3s2)cc1	-3.6%	24.0%	nt	-109.4%	-20.1%	-28.6%	2.1%	?
44	CN(C)N1C(=O)CC(N2CCCCC2)C1=O (stereo unspecified)	nt	2.0%	-9.4%	nt	3.7%	?	nt	0.4%
45	C/C(=N/NC(=O)c1cccs1)c1ccc(NC(=O)COc2ccc(Cl)cc2Cl)cc1	-6.6%	-8.7%	4.4%	-1.8%	-2.3%	?	?	13µM*
46	O=C(Nc1ccc(N2CCN(Cc3ccccc3Cl)CC2)cc1)c1cccnc1	-1.7%	16.5%	?	-8.3%	2.0%	?	2.4%	-3.3%
47	O=C(COCC(=O)N/N=C/c1ccccc1F)N/N=C/c1ccccc1F	-1.5%	0.5%	19.4%	6.3%	7.8%	?	-8.8%	?
48	CCCc1nnc(NC(=O)CCC(=O)NCc2ccccc2)s1	nt	5.9%	-4.4%	7.7%	-2.3%	nt	nt	nt

Assay outcomes (PubChem BioAssay)
